Ab BasE inh = BasE siderophore enzyme inhibitors, primary screen, biochemical, Acinetobacter baumannii ATCC 17978, fluorescence polarization | purified BasE, fluorescence polarization binding displacement | inhibition, % (no concentration beside the values) | hit rate 0.1% among 84,000;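 active = both replicates above 25% with normal brightness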;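 also: 0% = negative plate control signal and 100% = positive plate control signal; stock transfer was 100 nL into about 30 µL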
KSHV LANA nucl = inhibitors of KSHV LANA-nucleosome binding, primary screen, biochemical, fluorescence polarization, FITC-LANA1-23, chicken nucleosomes; FITC-LANA1-23 / chicken nucleosome fluorescence polarization; stronger effect = lower value; z-score (concentration not given with the values); hit rate 0.3% among 51,000; AID 720717, 2013;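 active = both repeat wells score below -2 in polarization z-score versus plate sample wells, excluding overly bright wells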;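 also: 100 nL library stock added to about 30 µL; numbers are from one replicate; some results filed as inactive read as strong as hits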
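Test system: purified chicken nucleosomes with FITC-labelled LANA N-terminal peptide (1-23); Input: 240 nM purified chicken nucleosomes (480 nM peptide binding sites), final; Medium: TEN-BT buffer, pH 7.5; Timing: 10–45 min, room temperature; Technique: fluorescence polarization, 480 nm excitation, 535 nm parallel and perpendicular emission; Replication: duplicates.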
An asterisk follows results filed as active; · = no result given; & = joins results of further samples.

Preview (seven entries):
SMILES	Ab BasE inh	KSHV LANA nucl
CS(=O)(=O)NC(C(=O)O)c1ccccc1 (stereo not given)	-0.6	-0.279
Cc1cc(O)cc(O)c1C(=O)Cc1cscn1	4.4	0.191
CC(=O)Nc1ccc(N)cc1	0.4	·
Cc1cc(NC(=O)N(C)C)nn1-c1ccccc1	-0.3	·
O=C(COc1ccc2ccccc2c1)Nc1cccc(-c2nc3ncccc3o2)c1	-0.7	·
O=C1CCCc2cc(S(=O)(=O)N3CCCC(C(=O)N4CCCCC4)C3)ccc2N1 (stereo not given)	1.1	·
C[C@]12CCC(=O)C=C1CCC1C2[C@@H](O)C[C@@]2(C)C1CC[C@]2(O)C(=O)CO (stereo not given in full)	-0.3	1.66&0.0825

The listing, previewed entries included:
SMILES	Ab BasE inh	KSHV LANA nucl
CS(=O)(=O)NC(C(=O)O)c1ccccc1 (stereo not given)	-0.6	-0.279
Cc1cc(O)cc(O)c1C(=O)Cc1cscn1	4.4	0.191
CC(=O)Nc1ccc(N)cc1	0.4	·
Cc1cc(NC(=O)N(C)C)nn1-c1ccccc1	-0.3	·
O=C(COc1ccc2ccccc2c1)Nc1cccc(-c2nc3ncccc3o2)c1	-0.7	·
O=C1CCCc2cc(S(=O)(=O)N3CCCC(C(=O)N4CCCCC4)C3)ccc2N1 (stereo not given)	1.1	·
C[C@]12CCC(=O)C=C1CCC1C2[C@@H](O)C[C@@]2(C)C1CC[C@]2(O)C(=O)CO (stereo not given in full)	-0.3	1.66&0.0825
CCCN(CC1CC1)C(=O)CSc1nnnn1-c1ccc(OC)cc1	-1.0	·

Continued.
SMILES	Ab BasE inh	KSHV LANA nucl
CCCNS(=O)(=O)c1ccc2c(c1)CC(C)N2C(=O)C1CCC1 (stereo not given)	1.1	-1.07
COc1ccc(-c2nn(CCC#N)cc2/C=N\NC(=O)c2ccccc2)cc1	-0.4	0.414
Nc1cc(N)nc(SCc2noc(-c3ccc(Cl)cc3)n2)n1	-0.4	-0.386
CCOC(=O)N1CCN(CC(O)Cn2c(=O)c3c(ncn3C)n(C)c2=O)CC1 (stereo not given)	0.4	·
CC(=O)Oc1ccccc1C(=O)O	0.6	0.901&0.066&-0.599
Cc1ccc(C(=O)NCCn2c(C)cc3ccccc32)cc1	-0.9	-0.719
CC1=CC(C)C2COC(c3cccnc3)C1C2C (stereo not given)	-0.8	-0.162
CCN(CC)CCNc1ccnc2cc(Cl)ccc12	-2.9	-1.84

Carrying on:
SMILES	Ab BasE inh	KSHV LANA nucl
CCOC(=O)C1CCN(C2=NC(C)C(=O)N2c2ccc(C)cc2)CC1 (stereo not given)	-0.2	-0.0035
O=C(NCC(c1ccco1)N1CCOCC1)c1ccccc1 (stereo not given)	0.8	0.326
COc1ccccc1-n1cnnc1SCc1ccc(C)cc1	-2.1	·
Cc1cc(C)n2nc(C(=O)OCC(=O)N3CCN(S(=O)(=O)c4ccccc4)CC3)nc2n1	-0.4	·
NNC(=O)CS(=O)Cc1cccc(C(F)(F)F)c1 (stereo not given)	-1.6	·
CCN(CC)c1ccc(C(=O)NN)cc1	2.0	·
Cc1nnsc1C(=O)Nc1ccc(N(C)C)cc1	·	-0.506
O=C(/C=C/c1ccccc1)N1CCCc2ccccc21	-1.5	-0.08

(next part)
SMILES	Ab BasE inh	KSHV LANA nucl
Cc1ccc(C(=O)NCCN2C(=O)S/C(=C\c3ccc(F)cc3)C2=O)cc1NC(=O)c1ccco1	2.0	·
FC(F)(F)c1cc(-c2ccc(-c3ccn[nH]3)o2)cc(C(F)(F)F)c1	1.5	0.428
O=C(O)c1nc(Cl)c(Cl)c(N2CCCCC2)c1Cl	0.6	·
O=c1[nH]nc(CSc2ccccn2)c2ccccc12	-2.0	·
NC(=O)CSc1nc(NC2CC2)c2ccccc2n1	-3.0	·
CC(C)(C)NC(=S)N1CCSCC1	0.3	·
N#Cc1ccc(-c2ccc(F)cc2)n(CC(=O)N2CCCC2)c1=O	-0.7	0.373
Cc1ccc(NCc2n[nH]c(=S)n2-c2ccccc2)cc1	0.5	0.143

Further results follow.
SMILES	Ab BasE inh	KSHV LANA nucl
CCn1c(=NC(=O)COc2ccc(OC)cc2)sc2cccc(F)c21	4.2	·
CCN(CC)S(=O)(=O)c1ccc(-n2cnnn2)c(C)c1	2.3	-0.887
CC1Cc2ccccc2N1C(=O)CSc1ncccc1C(=O)O (stereo not given)	-0.4	-0.984
Cc1csc2ncnc(N3CCN(C(=O)Nc4ccc(OC(F)(F)F)cc4)CC3)c12	1.2	·
COc1ccc(C2(O)CCN(CC(=O)NC(C)(C)C)CC2)c(OC)c1	-1.0	0.217
N#Cc1ccccc1NC(=O)COC(=O)c1ccco1	0.2	·
COc1ccc(CN(C2CCCC2)S(=O)(=O)c2ccc(-n3cnnn3)cc2)cc1	1.8	0.823
NC(=O)c1ccccc1NC(=O)c1ccccc1	-5.5	1.26

Continuation:
SMILES	Ab BasE inh	KSHV LANA nucl
O=C(NCCCN1CCOCC1)Nc1noc2c1COc1ccccc1-2	-2.4	-1.12
Cc1ccc2nc(C)cc(NC3CCCCC3)c2c1	-2.3	·
C/C(=N\NC(=O)Cc1cccs1)c1ccc(S(=O)(=O)N(C)C)cc1	0.9	·
OCCNc1ccc(Cl)nn1	·	0.538
CC(=O)NC1(c2ccccc2F)CCN(CC(=O)N2CCN(C(=O)c3ccco3)CC2)CC1	-3.6	-0.0555
Cc1ccc(S(=O)(=O)NCC(=O)OCc2cc(=O)n3cc(C)ccc3n2)cc1	-0.2	·
CCc1cccc(OCC(=O)Nc2ccc(S(=O)(=O)Nc3nccs3)cc2)c1	4.9	·
C=CCN1C(=O)C(C#N)=C(C)/C(=C\c2ccc(-c3cccc(C(=O)O)c3)o2)C1=O	-0.5	0.087

The results go on:
SMILES	Ab BasE inh	KSHV LANA nucl
COC(=O)c1cccc(S(=O)(=O)N(C)C)c1	2.5	-0.618
O=C(COC(=O)C1(c2ccccc2)CC1)Nc1nnc(-c2ccccc2)o1	2.2	·
Cc1ccc(S(=O)(=O)N2CCCC2C(N)=O)cc1 (stereo not given)	1.1	-0.601
CCc1ccc(-n2nnc(C(=O)Nc3ccccc3)c2C)cc1	1.2	0.323
Cc1cccc(-n2c(=O)c3c4c(sc3n3c(=S)[nH]nc23)CCCC4)c1	3.9	·
NC(=O)CSc1sc(=S)sc1SCC(N)=O	0.5	0.605
CCC1CCCCN1CC(=O)c1ccc(Cl)s1 (stereo not given)	0.7	·
CC1=C(C)CC(C(=O)NCc2ccc3c(c2)OCO3)C(C(=O)O)C1 (stereo not given)	-0.2	·

New compounds follow.
SMILES	Ab BasE inh	KSHV LANA nucl
Nc1cc(=O)nc(SCC(=O)N2CCCc3ccccc32)n1-c1ccccc1	-0.5	0.438
Cc1oc(S(=O)(=O)N2CCOCC2)cc1-c1nc(-c2ccc(C(C)(C)C)cc2)no1	1.2	·
COc1cccc(NC(=O)C2CC3CCCN3C23C(=O)N(C)c2ccccc23)c1 (stereo not given)	1.0	0.219
O=c1cc(-c2ccccc2)oc2cc(O)c(O)c(O)c12	-0.2	-0.524
O=c1/c(=C/c2ccc(-c3cccc(C(F)(F)F)c3)o2)sc2nc(-c3ccncc3)nn12	1.3	·
Cc1ccnc(NS(=O)(=O)c2ccc(NC(=O)c3ccccc3Br)cc2)n1	2.3	·
Cc1ccc(S(=O)(=O)N(CCO)CCO)cc1	-0.5	-0.002
O=C(Nc1cccnc1)c1cc2nc(C3CC3)cc(C(F)(F)F)n2n1	6.7	0.15

(cont.)
SMILES	Ab BasE inh	KSHV LANA nucl
Nc1nc(N)c2nc(-c3ccccc3)c(N)nc2n1	-2.0	0.647&0.591
O=C(Nc1ccc(Cl)cc1)C1C2CCCCC21 (stereo not given)	-2.6	2.62
Cc1nc2sc(C(=O)N(C3=NC(C)CS3)c3ccc(Cl)cc3)c(C)c2c(=O)[nH]1 (stereo not given)	-0.3	·
CSc1ncc(C(=O)NC2CC2)c(-c2ccccc2)n1	-1.1	-0.277
O=C(CSc1n[nH]c(-c2ccccc2)n1)c1cccs1	-0.6	-1.01
CC(=O)Nc1cccc(NC(=O)C2CCCN2C(=O)Nc2ccccc2Cl)c1 (stereo not given)	-2.3	-0.837
COc1ccc(/C=C/C(=O)CC(=O)/C=C/c2cccc(O)c2OC)cc1O	-26.6	2.39
N#CCn1c(C(F)(F)F)nc2ccccc21	·	-1.11

Later entries:
SMILES	Ab BasE inh	KSHV LANA nucl
FC(F)(F)c1cc(-c2cccs2)no1	-2.0	-0.273
CCCC(=O)Nc1nonc1-c1ccccc1	-1.4	0.547
CCCCc1ccc2nc(NC(=O)C3=NN(C)C(=O)CC3)sc2c1	-1.0	·
c1ccc2c(c1)ncn1c3ccccc3nc21	0.2	-0.5
N#Cc1c2c(c(-c3ccco3)[nH]c1=O)CCCC2	4.0	-0.116
CC(C)N(C(=O)CSc1nc(O)cc(=O)[nH]1)C(C)C	0.0	·
CNC(=O)c1sc(=S)n(-c2ccccc2)c1N	-2.8	2.13
N#C/C(=C\C=C\c1ccco1)C(N)=S	33.2*	-0.629

The list continues.
SMILES	Ab BasE inh	KSHV LANA nucl
NNC(=O)c1csc(CS(=O)(=O)Cc2ccco2)n1	-2.2	·
CC1(C)CC(=O)C2=C(C1)N(c1ccc(F)cc1)C(=O)C2(O)C(F)(F)F (stereo not given)	0.6	0.322
COc1ccccc1NC(=O)C1=C(C)NC2=C(C(=O)CCC2)C1c1cc2c(cc1Br)OCO2 (stereo not given)	-1.6	-0.797
COC(=O)c1ccccc1NC(=O)CN(C)Cc1ccccc1	2.1	·
O=C1CSC(CC(=O)Nc2ccccc2)=N1	-0.1	0.0015
CCN1CCN(CCCNC(=O)c2cnn(-c3ccc(C)cc3C)c2C2CCNCC2)CC1	1.0	·
CCOC(=O)N1CCC(NC(=O)CCNC(=O)Cn2ccc3ccccc3c2=O)CC1	2.1	-0.502
CCOc1ccc(N/C(N)=N/c2nc(C(F)(F)F)cc(C(F)(F)F)n2)cc1	0.4	·

Continuation.
molecule | Ab BasE inh | KSHV LANA nucl
Cc1cc(C)c2c(c1)/C(=N/NC(=O)CCN1CCOCC1)CCC2 | 18.7 | ·
CC(C)(C)c1cccc(OCCON2C(=O)CCC2=O)c1 | 0.8 | -0.998
C/C(CC1(O)C(=O)N(C)c2ccccc21)=N\O (stereo not given) | 2.8 | ·
Cc1ccc(Oc2ccc(C(=O)O)cc2)cc1C | 3.3 | -0.929
COc1ccc(CNC(=O)c2cc3sccc3n2CC(=O)c2ccccc2)cc1 | 1.8 | -0.053
CCOC(=O)COc1cc(OCC(=O)OCC)c2c3c(c(=O)oc2c1)CCC3 | -0.2 | 0.035
O=C(CN1CCOCC1)NCc1ccccc1 | 1.3 | -0.381
CNC(=S)N=Nc1c(O)[nH]c2ccc(C(C)C)cc12 | 1.4 | ·
COC(=O)C1=C(C)N(c2ccc(Br)cc2)C(=O)/C1=C\c1ccco1 | -2.0 | -0.888
Cc1ccc(CN2C(=O)/C(=c3\sc4nc(-c5cccs5)nn4c3=O)c3ccccc32)cc1 | 2.2 | -0.591
Cc1cccc(NC(=S)NC23CN4CN(CN(C4)C2)C3)c1C | -1.5 | -0.211
O=C(/C=C/c1c(Cl)nc2sccn12)Nc1ccc2c(c1)OCCO2 | 2.1 | ·
O=S1(=O)CCC(S(=O)(=O)Nc2ccccc2)C1 (stereo not given) | 3.9 | -0.953
CC(NC(=O)Nc1ccccc1O)(C(F)(F)F)C(F)(F)F | -1.0 | 0.127
COc1cc(CNC(=O)CCCC/C=C/C(C)C)ccc1O | 0.7&1.4&-0.1 | 0.465&0.162&-0.602&-0.629&-0.235
CCN(CC)S(=O)(=O)c1ccc(C(=O)N2CCNC(=O)C2)cc1 | 1.4 | ·
COC(=O)CCS(=O)(=O)c1ccc(Oc2ccc(S(=O)(=O)CCC(=O)OC)cc2)cc1 | 2.7 | 0.22
Cc1ccc(S(=O)(=O)N2CCCCC2)cc1C(=O)N1CCCC1 | 1.2 | -2.18
CCn1c(C)nc2cc(S(=O)(=O)C(F)(F)F)ccc21 | 2.7 | ·
CC1(C)CC(=O)C(c2nc3ccc(C(=O)c4ccccc4)cc3[nH]2)=C(O)C1 | 1.7 | ·

The list goes on:
molecule | Ab BasE inh | KSHV LANA nucl
C=CCNC(=O)Cc1ccc(-c2ccccc2)cc1 | -2.3 | ·
Cc1nc(N2CCCC2)nc2oc(-c3ccccc3)nc12 | -2.3 | -0.57
CN(C)CC(C)(C)CNc1ncnc2sccc12 | -1.4 | ·
CCOC(=O)c1csc(-c2cn(C(C)C)c(=O)n(Cc3ccccc3)c2=O)n1 | 0.0 | ·
Oc1cccc(C(=S)N2CCCCC2)c1 | -0.2 | -0.398
O=C(c1cccc(S(=O)(=O)NC2CC2)c1)N1CCN(c2ncccn2)CC1 | 2.9 | ·
Cc1cc(C)n2c(Br)c(CSc3nc4ccccc4o3)nc2n1 | 2.5 | ·
CC1=CC(C)C2(CO)COC(=C(C)C)C1C2C (stereo not given) | -0.2 | 0.242
COc1ccc(NC(=O)CSC2CCCCC2)cc1 | 1.8 | -1.31
O=C1c2ccccc2S(=O)(=O)c2cc(C(=O)N(Cc3ccco3)C3CCS(=O)(=O)C3)ccc21 (stereo not given) | 1.4 | ·
O=C(NC1CCN(Cc2ccccc2)CC1)c1cccs1 | -1.6 | -0.042
O=C(CSc1n[nH]c(-c2ccncc2)n1)N1c2ccccc2OCC1c1ccccc1 (stereo not given) | 1.0 | ·
Cc1cc(C(=O)Nc2ccc(N3CCOCC3)cc2)no1 | 0.2 | ·
OC(c1ccccc1)c1ccc(Br)cc1 (stereo not given) | 2.0 | 1.01
O=C1NCC2=C1C(c1ccc(Br)cc1)Nc1ccccc1N2 (stereo not given) | 1.4 | 0.315
CCC(C)(CN(C)C)OC(=O)c1ccccc1 (stereo not given) | -2.7 | -1.12
NC(=O)N/N=C/c1cccc(C(F)(F)F)c1 | -1.4 | ·

Some of the compounds tested (hit frequency here may not be typical).
